# Six1-Eya2 blk = inhibitors of human Six1/Eya2 interaction; Q15475+O00167; AlphaScreen GST-Six1/His-Eya2 binding, biochemical; active compounds read low; control for the full effect not named in the record; activity change, % (test concentration not listed); hit rate 0.56% among 360,000; AID 651725; in the data active = activity change below about -65%; inconclusive = about -30% to -65%; inactive = above about -30%; also: % is scaled to controls: 0 for no effect and ±100 for the full control effect
#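 AlphaScreen with GST-Six1 and His-Eya2 (5X mix: 250 nM and 500 nM), glutathione donor and nickel acceptor beads; buffer 50 mM Tris pH 8.0, 300 mM NaCl, 1 mM TCEP; 1 h at 37 C in the dark.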
# TRPML1 agonist = agonists of human TRPML1 channel. Q9GZU1. TRPML1-expressing cells, Ca2+ dye fluorescence, FDSS; host cell line not named in the record; reference of the full effect not given here. activation, % (test concentration not listed). hit rate 0.12% among 410,000; in the data active = activation above about 50%; inconclusive = about 30% to 50%; inactive = below about 30%; also: 0% is about no effect; the text of the record puts the active cut at 80%
# Target sequence (Q9GZU1 whole entry, looked up): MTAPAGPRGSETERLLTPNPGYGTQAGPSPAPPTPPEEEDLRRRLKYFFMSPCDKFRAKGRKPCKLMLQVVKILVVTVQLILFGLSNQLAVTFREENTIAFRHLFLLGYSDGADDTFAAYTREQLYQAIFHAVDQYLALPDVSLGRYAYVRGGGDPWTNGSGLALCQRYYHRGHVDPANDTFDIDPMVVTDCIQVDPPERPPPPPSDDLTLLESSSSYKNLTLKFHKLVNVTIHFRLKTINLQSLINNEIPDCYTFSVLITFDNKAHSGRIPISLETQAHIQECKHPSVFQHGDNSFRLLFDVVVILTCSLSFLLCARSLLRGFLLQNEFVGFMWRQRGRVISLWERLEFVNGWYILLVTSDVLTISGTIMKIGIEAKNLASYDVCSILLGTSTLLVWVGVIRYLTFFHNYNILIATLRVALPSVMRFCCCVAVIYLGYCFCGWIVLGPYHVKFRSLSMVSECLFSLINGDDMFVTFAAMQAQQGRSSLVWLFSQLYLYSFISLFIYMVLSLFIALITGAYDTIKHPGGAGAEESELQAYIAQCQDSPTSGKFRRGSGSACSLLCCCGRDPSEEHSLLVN
#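 Tetracycline-induced TRPML1-DL cells are seeded and incubated overnight before loading with a no-wash Ca2+ dye and quencher. Agonist activity is taken from the 110 s fluorescence read following compound pin-transfer on an FDSS, before EC80 54-4 challenge.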
# TRPML1 blocker = human mucolipin-1 channel inhibition; AID 624415; activity change, negative = inhibition, % (concentration not given with the values); TRPML1-inducible cells, Ca2+ dye fluorescence, FDSS; active compounds read low; inhibition of EC80 agonist-evoked calcium signal; hit rate 0.02% among 390,000; in the data active means activity change below about -50%; inconclusive means about -30% to -50%; inactive means above about -30%;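 also: stimulus is agonist 54-4 at its EC80 concentration; % is scaled to controls: 0 for no effect and ±100 for the full control effect; the text of the record puts the active cut at -80%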
#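 TRPML1-DL cells, Tet-induced overnight (~16 h, 37 °C) at 1,500 cells/well, were loaded with Ca8 no-wash dye plus quencher for 45-90 min at room temperature. Compounds were pinned during FDSS kinetic reading; agonist 54-4 at EC80 (4 uM final) then added.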
# D2 PAM = potentiates the human D2 dopamine receptor allosterically | DiscoveRx D2 beta-arrestin cells, luminescence, 90 min; 100% = 57 uM dopamine signal | potentiation, % (concentration not given with the values) | hit rate 0.23% among 360,000; active = potentiation of 50% or more; inconclusive = 30% to 50%; inactive = 30% or less;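 also: compound concentration not given in the record; tested on top of an EC20 dose of dopamine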
# Target sequence (P14416 whole entry, looked up): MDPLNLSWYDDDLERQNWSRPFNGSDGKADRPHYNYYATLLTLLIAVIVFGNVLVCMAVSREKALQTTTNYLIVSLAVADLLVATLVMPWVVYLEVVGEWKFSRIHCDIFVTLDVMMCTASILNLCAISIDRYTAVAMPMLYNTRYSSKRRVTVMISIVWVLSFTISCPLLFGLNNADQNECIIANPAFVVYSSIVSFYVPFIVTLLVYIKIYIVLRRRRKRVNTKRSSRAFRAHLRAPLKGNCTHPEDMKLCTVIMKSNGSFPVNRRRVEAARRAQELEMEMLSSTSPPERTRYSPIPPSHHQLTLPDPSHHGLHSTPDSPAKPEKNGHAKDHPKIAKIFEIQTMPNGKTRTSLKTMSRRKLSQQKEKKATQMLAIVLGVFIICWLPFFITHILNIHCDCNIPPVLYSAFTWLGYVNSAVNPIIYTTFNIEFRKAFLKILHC
#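 D2 cells co-treated with compound plus 50 nM dopamine (EC20) for 90 min at 37 deg C to detect potentiation. Beta-arrestin recruitment was read as enzyme-fragment luminescence after 1 h at ambient temperature. Full response was set by 57 uM dopamine.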
# D2 agonist = activates the human D2 dopamine receptor; P14416; activation, % (test concentration not listed); DiscoveRx PathHunter D2 beta-arrestin, luminescence, 90 min; 100% = 57 uM dopamine signal; hit rate 0.084% among 360,000; in the data active = activation above about 40%; inconclusive = about 15% to 40%; inactive = below about 15%; also: compound concentration not given in the record; the text of the record calls up to 30% inactive
#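 Agonist mode: compounds alone added to overnight-plated D2 PathHunter cells for 90 min at 37 C, with 57 uM final dopamine (EC100) defining full response. Beta-arrestin recruitment detected by chemiluminescent reagent, read after 1 h at ambient temperature.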
# PINK1 expr mod = modulators of PINK1 expression; PINK1 immunofluorescence, high-content cytometry, 24 h; Potency, µM (highest dose often 76.6 µM), for the others: at the highest dose activation (PINK1 increase), actives largely listed as activators; hit rate 0.2% among 410,000; AID 624263; active = well fitted activation curve with a large enough effect; inconclusive = small, poorly fitted or top-dose-only effect; inactive = flat fitted curve, though single readings scatter; cell line not stated here;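 also: potency is read from the fitted curve at half-maximal effect; % of control where 0% means no effect; nearly all actives have a fitted effect of over 65% in size; a mitochondrial uncoupler was the plate control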
#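 Stable cell line, 250 cells/well, 12 h attachment; compounds pinned at 5 concentrations, 24 h; CCCP control. Fixed with nuclear dye, primary antibodies 12 h at 10 degrees C, secondary plus cell stain; laser-scanning cytometer read.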
# * = called active by the depositor; ? = inconclusive; . = not tested or not shown; [ ] = remark or other dose. Rows are unselected; overall some 1% were active at least once.
SMILES,Six1-Eya2 blk,TRPML1 agonist,TRPML1 blocker,D2 PAM,D2 agonist,PINK1 expr mod
O=C(c1ccco1)N1CCN(S(=O)(=O)c2ccc(Cl)cc2)CC1,-15.3,0.4,-13.7,-7.2,1.1,2.1%
CCOc1ccc(C2C3=C(Nc4nc(N)[nH]c(=O)c42)c2ccccc2C3=O)cc1 (configuration not stated),-71.6*,-0.4,-7.7,-21.6,4.0,2.8%
CC(C(=O)OCC(=O)c1ccccc1)N1C(=O)c2ccccc2C1=O (configuration not stated),-13.5,-1.2,5.5,-11.9,-2.2,-0.5%
COC(=O)c1cc2c(C)[nH]c(C)c2cc(C(=O)OC)c1=O,-18.0,-0.8,-10.8,-6.5,0.3,-0.4%
Cc1ccc(-n2nc(C(=O)NCc3ccco3)c3c4ccccc4n(C)c3c2=O)cc1,-2.5,-0.5,25.8,-14.8,-7.1,9.0%
CC(=O)NC(c1cccc(F)c1)c1nc(-c2cccc(F)c2)cs1 (configuration not stated),6.6,-0.1,.,-3.2,-3.6,1.4%
O=C(CCCC(=O)NN=Cc1ccc(Cl)cc1Cl)NN=Cc1ccc(Cl)cc1Cl,6.5,0.4,12.2,-13.1,-1.5,10.0%
CCOC(=O)c1c(NC=O)sc2c1CCC2,?,1.0,2.3,-28.7,-5.2,0.8%
O=C(CC(Nc1ccccc1)c1ccc(F)cc1)c1ccccc1 (configuration not stated),-7.5,1.7,14.5,5.9,-3.8,1.0%
CCOc1ccccc1NC(=O)C1CCCN(S(C)(=O)=O)C1 (configuration not stated),-1.9,0.0,8.5,-0.6,-1.7,0.6%
CCCCn1c(SCc2ccccc2C)nc2ccsc2c1=O,.,3.6,17.8,.,.,5.0%
O=C(N/N=C/C=C/c1ccccc1)c1cc(C2CC2)[nH]n1,-1.4,0.2,-10.8,-12.8,1.3,3.2%
Cc1ccc(S(=O)(=O)N2CCOCC2)cc1C(=O)Nc1ccc(S(=O)(=O)Nc2nccs2)cc1,-9.2,-0.2,7.7,-10.4,-2.9,-0.3%
O=C1NCC(=O)N2C(c3ccccc3)c3[nH]c4ccccc4c3C[C@@H]12 (some centres not stated),-1.3,-0.1,-7.8,-6.2,2.5,-1.0%
CCOC(=O)c1c(-c2ccccc2)csc1N1C(=O)Nc2ccccc2N1O,-2.0,2.0,-10.6,-2.1,-6.1,0.2%
COc1ccc(CN2CCN(Cc3ccon3)CC2CCO)c(C)c1C (configuration not stated),1.5,0.2,-26.1,-23.7,-1.2,-1.3%
CCOC(=O)Nc1cc(C(=O)OCC)c(C)nc1C,1.4,0.8,-22.4,-4.3,-4.3,-0.4%
Cc1ccc(Cl)cc1N1CCN(C(=O)c2cn(C3CCCCC3)c(=O)c3c2c2ccccc2n3C)CC1,.,-0.2,-6.5,.,.,0.8%
CN(C)c1ccc(/C=C/c2noc(-c3ccccc3O)n2)cc1,.,1.9,-0.7,.,.,1.2%
COc1ccc(OC[C@@H](O)CNC(=O)c2cccc3c2C(=O)c2ccc(Cl)cc2S3(=O)=O)cc1,-7.9,-0.1,4.7,8.7,4.3,4.0%
CN(c1ccccc1)S(=O)(=O)c1cccc(C(=O)NCC(=O)Nc2ccc(F)c(F)c2F)c1,-9.8,-1.8,-7.0,-13.0,0.0,-0.1%
Cc1cccc(-c2nc3nc(C)cc(N4CCN(c5ccccc5)CC4)n3n2)c1,.,-0.8,14.2,.,.,0.6%
CC(C)CC(=O)Nc1nc2nc(-c3ccccc3)cc(=O)n2[nH]1,.,1.1,13.6,.,.,0.0%
CC(=O)c1c(C)[nH]c(C(=O)Nc2nc(-c3ccc(Cl)cc3)cs2)c1C,5.0,1.1,-5.2,-0.5,1.7,?
Cc1ccc(CNCC2CCCO2)s1 (configuration not stated),2.9,2.5,-15.0,-8.2,-1.9,-2.5%

# Next section.
SMILES,Six1-Eya2 blk,TRPML1 agonist,TRPML1 blocker,D2 PAM,D2 agonist,PINK1 expr mod
CC1(C)NC(=O)N(CCOc2ccc([N+](=O)[O-])cc2)C1=O,-5.8,1.8,-14.2,-8.0,1.3,1.8%
Cc1ccsc1/C=N/n1c(COc2ccccc2)n[nH]c1=S,-12.0,2.1,-2.5,17.9,2.6,-0.3%
COc1ccc(-c2nnc(SCC(=O)N(C)C3CCCCC3)o2)cc1OC,.,-0.6,-8.5,.,.,-0.1%
C/C(=C\C(=O)c1cccnc1)Nc1ccc(C)c(C)c1,-9.2,0.7,30.2,-7.5,0.3,.
CCC(=O)c1ccc(N2CCN(C(=O)COc3ccccc3F)CC2)c(F)c1,3.2,0.7,9.7,-1.5,10.4,-0.6%
[O-]/[N+](=C\c1ccc(F)cc1)c1ccccc1,7.4,1.4,-9.8,-12.4,1.1,5.3%[38.3 µM]
CCCC(=O)n1nc(-c2cccnc2)nc1NCc1cccs1,-3.1,3.4,-4.4,-11.7,-4.7,3.6%
O=C(Nc1ccc(Cl)cc1)Nc1ccc2c(c1)OCO2,-9.1,0.8,18.3,-7.6,2.6,2.9%
CCOc1ccc(CCNC(=O)CCS(=O)(=O)c2ccc(Br)cc2)cc1OCC,-11.6,.,.,-8.3,-3.8,6.3%
O=CNn1cnc2c(oc3nc(-c4ccccc4)cc(-c4ccco4)c32)c1=O,-2.0,0.7,9.1,-20.3,-0.1,0.0%
Cc1ccc(CNC(=O)CN2NS(=O)(=O)c3ccccc3C2=O)cc1,5.7,-0.8,10.3,0.6,0.4,-0.2%
COc1ccc(S(=O)(=O)/C(C#N)=C/Nc2cccc(F)c2)cc1,8.8,.,.,3.9,-1.4,3.6%
Cc1ccc(-c2cn(S(=O)(=O)c3cccc([N+](=O)[O-])c3)nc2N)cc1,-10.2,-1.3,-1.2,6.6,?,3.6%
COc1cc(OC)c(NC(=O)N2CCc3cc(OC)c(OC)cc3C2CC(=O)O)cc1Cl (configuration not stated),.,0.9,-20.9,.,.,0.3%
CCOC(=O)C1CCCN(C(=O)COC(=O)c2ccc(C#N)cc2)C1 (configuration not stated),-3.2,0.0,-4.8,-4.4,-2.1,3.0%
CC(C)NC(=O)c1c(O)c2ccccc2[nH]c1=O,0.9,1.9,23.7,-7.3,3.0,8.0%[38.3 µM]
C[C@@H](Oc1ccccc1)c1nnn(Cc2ccccc2)c1-c1c([C@@H](C)Oc2ccccc2)nnn1Cc1ccccc1,-3.3,3.5,-5.6,-9.0,-6.9,2.6%
C/C=C/c1ccc(OCCCCN(C)Cc2ccccc2)c(OC)c1,-5.2,.,.,-63.1,4.7,7.3%
Cc1ccc(C(=O)CSc2nc(N)cc(=O)[nH]2)cc1C,4.2,0.2,7.4,-2.8,3.5,1.6%
CC1Cn2c(Cc3ccccc3)nnc2S1 (configuration not stated),0.5,-0.2,.,4.6,-6.3,0.8%
CN1C(=O)C(/C(N)=N/NC(=O)c2ccccc2)C2CC1(C)Oc1ccccc12 (configuration not stated),4.3,-0.1,-4.9,-2.2,-2.4,0.6%
CC(OCCN(C)C)C(=O)C12CC3CC(CC(C3)C1)C2 (configuration not stated),-1.5,0.2,-5.0,-19.3,-15.6,2.0%
O=C(Nc1c2ccccc2nc2ccccc12)C(Cl)(Cl)Cl,5.6,-0.7,17.2,9.7,2.3,-1.1%
Cc1ccccc1NS(=O)(=O)c1ccc(C(=O)N2CCN(c3ccccn3)CC2)cc1,1.3,0.1,9.5,-8.1,0.3,-0.6%
CCC(=O)NNC(=O)CCC(=O)Nc1cccc(Cl)c1C,5.2,-0.3,1.6,-3.9,4.7,1.4%

# More records.
SMILES,Six1-Eya2 blk,TRPML1 agonist,TRPML1 blocker,D2 PAM,D2 agonist,PINK1 expr mod
CCc1ccc2c(c1)C(c1ccc([N+](=O)[O-])cc1)=NNC(c1ccc(F)cc1)=N2,-8.6,-0.3,-9.7,-2.6,-0.3,9.8%[38.3 µM]
CCc1[nH]nc(C(=O)N/N=C/c2ccncc2)c1C,-6.0,0.0,8.6,0.9,0.3,-0.8%
CN1CCN(CC#CCC(O)(c2ccccc2)c2ccccc2)CC1,5.3,-0.3,-3.3,-11.8,-4.0,-2.6%
CN(C)CCN1C(=O)C(=O)/C(=C(/O)c2ccc(S(=O)(=O)N3CCOCC3)cc2)C1c1ccc(F)cc1 (configuration not stated),1.4,0.9,4.9,20.7,-1.6,1.2%
COc1ccc(-c2oc3c(c2C(=O)OCCO)C(OCCO)CCC3)cc1 (configuration not stated),-7.2,-0.5,.,.,.,0.0%
Cc1ccc(C2C3=C(CC(C)(C)CC3=O)N(CCN3CCOCC3)C3=C2C(=O)CC(C)(C)C3)cc1,1.1,-0.2,-17.8,-15.3,1.8,-1.1%
CN(C)S(=O)(=O)c1ccc2[nH]cc(/C=C/c3nc4ccccc4c(=O)n3-c3ccccc3)c2c1,3.5,2.1,6.1,6.8,1.4,11.2µM*
O=C(O)c1cccc(COc2ccc(CO)cc2Cl)c1,-0.2,-0.3,7.2,-13.4,-1.5,-0.1%[38.3 µM]
CCN(CC)C(=O)c1c(-c2ccccc2)oc2ccc(OC)cc12,9.4,0.0,-24.1,-9.4,-2.5,3.3%
CCOC(=O)N1CCN(C(=O)c2ccc3c(=O)n(Cc4ccccc4OC)c(=S)[nH]c3c2)CC1,-0.1,-0.5,-9.4,6.4,-2.9,-1.3%[38.3 µM]
COCCn1c(C)cc(C(=O)CN2C(=O)NC3(CCCCCC3)C2=O)c1C,1.5,0.2,-16.8,2.4,4.3,-1.2%
Cn1c(COc2ccc([N+](=O)[O-])cc2)nnc1SCC(=O)NCC1CCCO1 (configuration not stated),3.7,-0.9,2.4,-8.1,-3.2,1.5%
Cc1cc(S(=O)(=O)N2CCN(CC(=O)NCCc3cccs3)CC2)ccc1Br,-4.0,-0.5,-8.3,0.5,-0.6,0.1%
C=CCn1c(-c2cc(OC)c(OC)c(OC)c2)n[nH]c1=S,0.2,0.1,-15.4,-10.1,0.2,2.9%[38.3 µM]
CC(=O)N1CCN(c2ccc(NCc3cccs3)cc2)CC1,-12.7,-0.9,5.2,12.5,7.1,-1.9%
CC(=O)N1c2ccc(S(=O)(=O)N3CCC(C(=O)NCCc4ccc(Cl)cc4)CC3)cc2CC1C (configuration not stated),-0.4,-1.1,0.5,-5.2,-1.2,1.4%
Cc1nc(/C(N)=N/OC(=O)c2cccc(Cl)c2)c(C(F)(F)F)o1,1.3,4.1,-2.6,19.9,?,1.0%
COc1cc(/C=C2\SC(=O)NC2=O)ccc1Oc1cnccn1,-3.7,4.7,-17.6,0.1,3.2,-2.1%
CCOC(=O)c1ccc(CNS(=O)(=O)c2c(C)ccc3nsnc23)o1,10.0,-0.7,3.7,1.0,-2.9,1.1%
CC(C)C[C@H](NC(=O)C1CC(=O)N(c2ccc3c(c2)OCO3)C1)C(=O)NCc1ccco1 (some centres not stated),-8.0,4.4,31.4,-4.3,7.1,0.2%

# Just TRPML1 agonist, for 3 of the compounds above:
Structure	TRPML1 agonist
COCCn1c(C)cc(C(=O)CN2C(=O)NC3(CCCCCC3)C2=O)c1C	0.2
Cc1ccc(C2C3=C(CC(C)(C)CC3=O)N(CCN3CCOCC3)C3=C2C(=O)CC(C)(C)C3)cc1	-0.2
CC(=O)N1CCN(c2ccc(NCc3cccs3)cc2)CC1	-0.9
